2A firefly: Primary qHTS Assay for Foot and Mouth Disease Virus Antivirals against NCGC Sytravon and CBC Compound Libraries: Firefly Luciferase Signal | HEK cells with a luciferase reporter of 2A StopGo recoding | Potency, µM (titrated, usually from 57.5 µM), without a hit: top-dose signal change, negative = less light | AID 1745856, 2022 | hit rate 0.23% among 120,000; active = well fitted falling curve with a large enough effect; inconclusive = small, poorly fitted or top-dose-only effect; inactive = no such curve, though single readings can be large or run the other way; also: nearly all actives have a fitted effect of over 60% in size; overnight with compound
StopGo RLuc: Primary qHTS Assay for Foot and Mouth Disease Virus Antivirals against NCGC Sytravon and CBC Compound Libraries: Renilla Luciferase Signal | Potency, µM (top dose mostly 57.5 µM), without a hit: top-dose signal change, negative = less light | HEK cells with a luciferase reporter of 2A StopGo recoding | AID 1745857, 2022 | hit rate 0.32% among 120,000; active means well fitted falling curve with a large enough effect; inconclusive means small, poorly fitted or top-dose-only effect; inactive means no such curve, though single readings can be large or run the other way; also: nearly all actives have a fitted effect of over 55% in size; overnight with compound
Numbers without * were called inactive; u = inconclusive; & = joins results of further samples; [ ] = another dose, or the depositor's remark. % is scaled to controls: 0 for no effect and ±100 for the full control effect; potency is read from the fitted curve at half-maximal effect. A portion of the library; the hit share may differ from the screen's.

#1 Cc1[nH]nc2c1C(c1ccccc1C(F)(F)F)C(C#N)=C(N)O2 (centres undefined)
#2 CCCn1c(CN2CCN(C(=O)OCC)CC2)nc2cc(NC(=O)c3ccc(Cl)cc3)ccc21
#3 Cc1ccc(Cl)cc1NC(=O)CN1C(=O)CSc2ccc(S(=O)(=O)N3CCCC3)cc21
#4 CS(=O)(=O)N1CCCc2cc(-c3csc(N)n3)ccc21
#5 COc1ccccc1CCNC(=O)CCc1c(C)c2cc3c(C)coc3cc2oc1=O
#6 CC(C)c1nnc(NC(=O)c2cc(=O)c3ccccc3o2)s1
Compound	1	2	3	4	5	6
2A firefly	-14%	40%[activator]	-19%	154%[activator]	9%	92%[activator]
StopGo RLuc	-25%	9%	0%	-7%	-8%	-10%

#7 CCOc1cccc(C2c3c(-c4cc(C)ccc4O)n[nH]c3C(=O)N2Cc2ccco2)c1 (centres undefined)
#8 Cc1ccc(-c2ccc(CCC(=O)O)n2-c2ccc(C(N)=O)cc2)cc1
#9 Cc1cc(C)c2c(=O)cc(C(=O)Nc3ccc(S(=O)(=O)Nc4nc(C)cc(C)n4)cc3)oc2c1
#10 CCCCc1noc(CSc2cc(C(N)=O)c3ccccc3n2)n1
#11 CC(C)C[C@@H](CO)N1Cc2nnn(Cc3ccccc3)c2-c2ccccc2S1(=O)=O
#12 O=C(Cn1ncc2ccccc2c1=O)Nc1ccc(F)c(F)c1
Compound	7	8	9	10	11	12
2A firefly	-10%	-1%	10%	-4%	-14%	7%
StopGo RLuc	39%[activator]	-1%	8%	14%	75%[activator]	-8%

#13 Cc1cc(C)cc(NC(=O)C(=O)NCC(c2ccc3c(c2)OCO3)N2CCN(C)CC2)c1 (centres undefined)
#14 Cn1cc(C(=O)N2CCNC(=O)C2)c2ccccc21
#15 CC(C1CC1)n1nccc1NC(=O)c1nn(C)c(=O)c2ccccc12 (centres undefined)
#16 CCCCNC(=O)c1cccc(-n2cnc3cccnc32)c1C
#17 CCSc1nnc2c(n1)OC(c1ccc(OC)c(OC)c1)N(C(C)=O)c1ccccc1-2 (centres undefined)
#18 NC(=O)c1nc(-c2ccc(F)c(F)c2)nc2c1[nH]c(=O)n2-c1cccc(Cl)c1
Compound	13	14	15	16	17	18
2A firefly	-19%	-1%	11%	-14%	-3%	27%
StopGo RLuc	-18%	-3%	3%	-9%	14%	-9%

#19 CCCCN(CC)CCNC(=O)C1CCN(S(=O)(=O)c2cccc3nsnc23)CC1
#20 CCc1nc2ccccc2c(C(=O)OCC(=O)NC23CC4CC(CC(C4)C2)C3)c1C
#21 Cc1cc2oc(=O)cc(CN(C)Cc3ccco3)c2cc1C
#22 CCCCCn1nc(C(=O)NCCC(=O)OC)c2ccccc2c1=O
#23 CC(=O)c1cccc(NC(=O)CCc2c(C)nc3nc(CN)nn3c2C)c1
#24 COc1cccc(-c2noc(-c3ccc(CSCc4ccccc4F)o3)n2)c1OC
Compound	19	20	21	22	23	24
2A firefly	-15%	-23%	3%	7%	-6%	32%[activator]
StopGo RLuc	-14%	9%	30%[activator]	3%	-4%	9%

#25 CCOc1ccccc1-c1nc(-c2ccc(-c3ccccc3)nc2OCC)no1
#26 CCOc1ccc(C2NC(=O)NC(CN3CCN(C(=O)OC(C)(C)C)CC3)=C2C(=O)OC)cc1 (centres undefined)
#27 CCCCC1CCC(c2nc(C#N)c(N3CCN(CC)CC3)o2)CC1 (centres undefined)
#28 Cc1ccc2c(CC(=O)Nc3ccccc3C(F)(F)F)coc2c1C
#29 CCc1ccc(S(=O)(=O)NCCc2csc3nc(-c4ccccc4)nn23)s1
#30 c1ccc(-c2nn3c(COc4ccc5c(c4)OCO5)nnc3s2)nc1
Compound	25	26	27	28	29	30
2A firefly	-3%	37%[activator]	2%	0%	-29%	45%[activator]
StopGo RLuc	-6%	-4%	-7%	-2%	66%[activator]	18%

#31 CC(=O)c1cn(CC(=O)NCC2CCC(C(=O)O)CC2)c2ccccc12 (centres undefined)
#32 N#Cc1c(SCC(N)=O)nc(N2CCOCC2)c2c1CCCC2
#33 Cc1cc2c(cc1S(=O)(=O)N(C)CC(=O)N1CCc3ccccc31)OC(C)C(=O)N2 (centres undefined)
#34 Cc1cc(C)cc(NC(=O)C2CCCN2S(=O)(=O)c2ccc3c(c2)C(C)(C)C(=O)N3C)c1 (centres undefined)
#35 COc1ccc(CNC(=O)c2cnn(-c3ccccc3)c2-n2cccc2)cc1OC
#36 COc1ccc(OC)c(NC(=O)c2nc3ccccc3nc2N2CCCC2)c1
Compound	31	32	33	34	35	36
2A firefly	7%	-17%	6%	-26%	u	1%
StopGo RLuc	-7%	-14%	20%	-9%	u	6%

#37 O=C(Nc1nc(C23CC4CC(CC(C4)C2)C3)cs1)C(c1ccccc1)c1ccccc1
#38 CC(C)c1ccc(C2CC(=O)NC3=C2C(=O)CC(C)(C)C3)cc1 (centres undefined)
#39 CN(Cc1cccs1)C(=O)CCc1ccccc1
#40 Cc1c(N)cccc1-c1nc2cc(C(C)C)ccc2o1
#41 Cc1cc(S(=O)(=O)Nc2cc3c(cc2Cl)n(C)c(=O)c(=O)n3C)ccc1F
#42 COc1ccc(NC(C)=O)cc1NC(=O)CCc1ncc(-c2ccccc2F)o1
Compound	37	38	39	40	41	42
2A firefly	3%	0%	59%[activator]	23%	-22%	79%[activator]
StopGo RLuc	-12%	8%	128%[activator]	-10%	51%[activator]	4%

#43 Cc1ccc2c(CC(=O)NC3CCCCCC3)coc2c1
#44 O=C(Nc1ccc2c3c(cccc13)CC2)C(Cl)(Cl)Cl
#45 CCS(=O)(=O)c1ncc(Cl)c(C(=O)Nc2c(C(=O)c3ccc(C)cc3)oc3ccccc23)n1
#46 COc1ccc(COC(=O)C2=C(C)NC3=C(C(=O)CCC3)C2c2cccc(OC)c2OC)cc1 (centres undefined)
#47 CC(=O)CC(c1ccccc1)c1c(O)c2ccccc2oc1=O (centres undefined)
#48 Cc1cc(C23CC4CC(CC(C4)C2)C3)ccc1O
Compound	43	44	45	46	47	48
2A firefly	193%[activator]	0%	10%&15%	-7%	-11%[11.5 µM]	0%
StopGo RLuc	59%[activator]	-7%	-2%&8%	17%	28%	11%

#49 CCCn1nc(C(=O)OCC(=O)N2CCc3ccccc32)c2ccccc2c1=O
#50 Cc1nn(S(=O)(=O)c2ccc(Br)cc2)c(C)c1S(=O)(=O)N1CCCCCC1
#51 CC(C)Cn1cnc2c1c(=O)n(CC(=O)Nc1ccc3c(c1)OCCO3)c(=O)n2CC(C)C
#52 CCCNc1nc2ccccc2nc1C(C#N)S(=O)(=O)c1ccc(Cl)cc1 (centres undefined)
#53 Cc1ccc(NC(C)(C)c2nnnn2-c2ccc(C)cc2)cc1
#54 CN(C)CC(C)(C)CNC(=S)NCCc1ccccc1
Compound	49	50	51	52	53	54
2A firefly	6%	-22%	-4%	19%	12%	0%
StopGo RLuc	1%	-7%	-8%	42%[activator]	31%[activator]	4%

#55 COc1ccccc1C(=O)Oc1ccc(C(c2c(C)[nH][nH]c2=O)c2c(C)[nH][nH]c2=O)cc1
#56 CCn1nc(C)c(CCN(C)C(=O)Nc2cc(OC)c(OC)c(OC)c2)c1C
#57 Cc1ccc2nc(/C(C#N)=C/c3cc(C)c(C)cc3C)[nH]c2c1
#58 CC1CCCCN1C(=O)CN1C(=O)N(c2cc(F)ccc2F)S(=O)(=O)c2ccccc21 (centres undefined)
#59 Cc1ccc2c(C)c(CCC(=O)Nc3ccccc3Cl)c(=O)oc2c1
#60 Cc1ccc(C)c(-c2nn(CC(=O)Nc3ccccc3)c(=O)c3c2CCCC3)c1
Compound	55	56	57	58	59	60
2A firefly	9%	6%	64%[activator]	-6%	16%	21%
StopGo RLuc	-10%	-4%	0%	21%	1%	22%

#61 CC(=O)c1cc2c(cc1N/C(=N/S(=O)(=O)c1ccccc1)c1ccc(Cl)cc1)OCO2
#62 CCN(CC)CCOC(=O)c1ccc(NC(=O)c2cc3c(=O)n(CC)c4ccccc4c3s2)cc1
#63 CCCN(CCC)c1nc(-c2ccccc2F)nc2ccccc12
#64 Cc1ccccc1CC(CC(=O)O)C(=O)O (centres undefined)
Compound	61	62	63	64
2A firefly	-10%	17%	-1%	4%
StopGo RLuc	18%	8%	8%	-13%

Of the compounds above, these have an aryl methoxy group.
#5 COc1ccccc1CCNC(=O)CCc1c(C)c2cc3c(C)coc3cc2oc1=O
#17 CCSc1nnc2c(n1)OC(c1ccc(OC)c(OC)c1)N(C(C)=O)c1ccccc1-2 (centres undefined)
#24 COc1cccc(-c2noc(-c3ccc(CSCc4ccccc4F)o3)n2)c1OC
#35 COc1ccc(CNC(=O)c2cnn(-c3ccccc3)c2-n2cccc2)cc1OC
#36 COc1ccc(OC)c(NC(=O)c2nc3ccccc3nc2N2CCCC2)c1
#42 COc1ccc(NC(C)=O)cc1NC(=O)CCc1ncc(-c2ccccc2F)o1
#46 COc1ccc(COC(=O)C2=C(C)NC3=C(C(=O)CCC3)C2c2cccc(OC)c2OC)cc1 (centres undefined)
#55 COc1ccccc1C(=O)Oc1ccc(C(c2c(C)[nH][nH]c2=O)c2c(C)[nH][nH]c2=O)cc1
Compound	5	17	24	35	36	42	46	55
2A firefly	9%	-3%	32%[activator]	u	1%	79%[activator]	-7%	9%
StopGo RLuc	-8%	14%	9%	u	6%	4%	17%	-10%

#56 CCn1nc(C)c(CCN(C)C(=O)Nc2cc(OC)c(OC)c(OC)c2)c1C
Compound	56
2A firefly	6%
StopGo RLuc	-4%
